# Mtb MenB inh = Mtb MenB enzyme inhibition | hit rate 0.43% among 100,000 | inhibition, %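 (about 12 µg/mL by stock and volumes)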 | AID 540299 | MenB enzyme assay, absorbance read-out; some hits fall short of the stated cut;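 active means mean of two replicates above 30%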;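 further: 0% = no compound and 100% = wells with inactive enzyme; the first replicate is given; strong numbers were not always called active; inactives centre near -10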
# Target sequence (P9WNP5 whole entry, looked up): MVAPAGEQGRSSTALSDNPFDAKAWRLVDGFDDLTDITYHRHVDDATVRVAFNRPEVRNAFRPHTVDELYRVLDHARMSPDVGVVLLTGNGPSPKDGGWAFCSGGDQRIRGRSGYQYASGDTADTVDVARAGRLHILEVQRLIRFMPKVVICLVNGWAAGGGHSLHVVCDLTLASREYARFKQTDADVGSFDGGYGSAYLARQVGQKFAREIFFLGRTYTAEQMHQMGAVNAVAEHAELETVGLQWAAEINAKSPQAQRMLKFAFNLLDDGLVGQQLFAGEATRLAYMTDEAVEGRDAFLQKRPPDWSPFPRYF
# PV pol inh = poliovirus RNA polymerase inhibition. poliovirus polymerase elongation, fluorescence polarization; stronger effect = lower value. % elongation, % (compound at 16.7 µg/mL). hit rate 0.66% among 150,000. AID 588519; in the data active means % elongation below about 90%; further: some results filed as inactive read as strong as hits
# Target sequence (P03300 1749-2209 limits assumed): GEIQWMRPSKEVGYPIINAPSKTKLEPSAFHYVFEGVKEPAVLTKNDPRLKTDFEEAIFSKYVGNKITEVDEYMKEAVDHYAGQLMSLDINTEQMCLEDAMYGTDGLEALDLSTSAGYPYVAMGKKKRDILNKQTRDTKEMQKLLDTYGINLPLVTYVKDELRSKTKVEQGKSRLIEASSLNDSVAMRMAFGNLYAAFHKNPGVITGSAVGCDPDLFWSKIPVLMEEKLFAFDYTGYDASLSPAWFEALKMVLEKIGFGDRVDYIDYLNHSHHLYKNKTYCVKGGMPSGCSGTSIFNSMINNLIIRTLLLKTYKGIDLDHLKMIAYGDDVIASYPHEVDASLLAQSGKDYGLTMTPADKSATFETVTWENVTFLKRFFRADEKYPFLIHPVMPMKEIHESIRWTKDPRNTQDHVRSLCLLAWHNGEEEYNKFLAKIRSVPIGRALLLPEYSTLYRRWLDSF
# Mtb MbtI inh = blocks the Mycobacterium tuberculosis siderophore enzyme MbtI; purified MbtI enzyme, fluorescence intensity read-out; AID 493033; hit rate 0.89% among 100,000; inhibition, %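 (about 17 µg/mL by stock and volumes)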; P9WFX0;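 active means above 50% in both replicates, above 80% if mildly self-fluorescent; inactive means the rest, strongly fluorescent compounds included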;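 further: 0% = mean of negative and 100% = mean of positive controls; one replicate is shown; some compounds called inactive have numbers as strong as hits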
# PV pol inh intensity = also measured in PV pol inh; calls as there; % elongation; measured here: total intensity read-out; formula for this scale not given here;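 total fluorescence in place of polarization; lower means less elongation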
# Active calls of the source: *; i = inactive; . = no result given; & = joins results of further samples.
SMILES,Mtb MenB inh,PV pol inh,PV pol inh intensity,Mtb MbtI inh
CC(C)CCNc1ncnc2c1nc1n2CCCCC1,-8,102,106,-5
CCN1CCN(C(=O)COc2ccc(S(=O)(=O)N(C)Cc3ccccc3)cc2)CC1,-54,104,103,-8
COc1ccc(C(c2ccc3cccnc3c2O)N2CCOCC2)cc1 (stereo not given),-64,102,111,98*
O=C(O)CSCC(=O)Nc1ccccc1C(F)(F)F,-31,100,104,-25
Cc1nc(C(=O)N/N=C/c2[nH]ncc2Cl)cs1,-30,103,101,3
COc1ccc(C2=Nn3c(nc4sc5c(c4c3=O)CCCC5)SC2)cc1,1,109,107,-2
CC(C)(C)OC(=O)N1CCCC(CN)C1 (stereo not given),-6,102,104,-4
CCOc1ccc(N(CC)S(=O)(=O)N2CCCC(C(=O)O)C2)cc1 (stereo not given),-2,99,101,-9
C=CCc1c(C)nc(SC)nc1Nc1ccc(C(=O)O)cc1,-61,103,99,9
O=C(C1CCC1)N1CCc2cc(S(=O)(=O)NCCN3CCCC3)ccc21,-2,103,105,-13
CCC1(CC)Cc2ccccc2-c2nc(NCCCO)[nH]c(=O)c21,9,100,103,88
COc1ccc(NC(=O)c2c(C)oc3ccc(O)c(CN4CCN(C)CC4)c23)cc1,6,102,104,3
CN(CCC#N)C(=O)Cn1cnc2c(cnn2-c2ccc(F)cc2)c1=O,-4,104,109,4
CCC(Oc1ccccc1)C(=O)N1CCOCC1 (stereo not given),-21,106,103,-7
Cc1nn(CCCC(=O)NCCc2ccccc2)c(=O)c2nccn12,-3,101,103,-6
O=C(CCN1CCOCC1)N1c2ccccc2Sc2ccc(Cl)cc21,-8,100,103,3
N/C(Cn1ccccc1=O)=N\O,-3,100,105,35
COc1ccc2nc(NC(=O)[C@@H]3CCCN3C(=O)c3cccs3)sc2c1,8,103,105,9
COc1cc(C2C(C#N)=C(C)Nc3oc(C)nc32)ccc1OCCN1CCOCC1 (stereo not given),-13,104,112,.
Cc1ccccc1OCC(=O)NC1CCCCC1,-12,100,105,.
CCO/N=C/c1c[nH]c2c(CC)cccc12,-63,100,100,1
COC(=O)N/N=C/c1cn(-c2ccccc2)nc1-c1ccc(OC)cc1,5,99,102,8
O=C(CSc1cccc[n+]1[O-])NCC1CCCCC1,-8,105,106,-2
O=C(O)Cn1cc(/C=C2\C(=O)NC(=O)N(c3ccc4c(c3)OCO4)C2=O)c2ccccc21,-64,102,103,30
COc1ccc(C(=O)OCC(N)=O)c(OC)c1,-29,103,107,15

# Ordered by length of the SMILES (high to low): part of the list above
SMILES,Mtb MenB inh,PV pol inh,PV pol inh intensity,Mtb MbtI inh
O=C(O)Cn1cc(/C=C2\C(=O)NC(=O)N(c3ccc4c(c3)OCO4)C2=O)c2ccccc21,-64,102,103,30
CCN1CCN(C(=O)COc2ccc(S(=O)(=O)N(C)Cc3ccccc3)cc2)CC1,-54,104,103,-8
O=C(C1CCC1)N1CCc2cc(S(=O)(=O)NCCN3CCCC3)ccc21,-2,103,105,-13
CCC1(CC)Cc2ccccc2-c2nc(NCCCO)[nH]c(=O)c21,9,100,103,88
CCO/N=C/c1c[nH]c2c(CC)cccc12,-63,100,100,1
CCC(Oc1ccccc1)C(=O)N1CCOCC1 (stereo not given),-21,106,103,-7
N/C(Cn1ccccc1=O)=N\O,-3,100,105,35

# Additional structures.
SMILES,Mtb MenB inh,PV pol inh,PV pol inh intensity,Mtb MbtI inh
CC(=O)Nc1nc(CSc2nnc(-c3cccc(S(=O)(=O)N4CCCCC4)c3)o2)cs1,-10,107,114,-10
Cc1nc(Cc2nnc(SCC(=O)c3ccc(Cl)s3)o2)cs1,-23,107,102,2
COC(=O)c1nc(NC2=NCCCCC2)n[nH]1,0,105,111,-34
Nn1c(SCC(=O)NCc2ccc3c(c2)OCO3)nncc1=O,-47,100,100,-1
Nc1nc(COc2ccccc2)cs1,.,102,106,-9
N#CCOC(=O)c1cc(-c2ccc(C=C(C#N)C#N)o2)ccc1Cl,-49,101,124,-3
Cc1ccc(S(=O)(=O)NC(C)C(=O)Oc2cc3oc(=O)c(Cl)c(C)c3cc2Cl)cc1 (stereo not given),-44,117,120,.
CC1(C)CC(=O)C2C(=Nc3ccccc3N=C2c2ccccc2)C1 (stereo not given),-19,109,108,.
CC(C)Sc1nnc(C2CC2)n1-c1ccccc1,-20,105,108,-8
O=C(COC(=O)c1ccc(N2CCCC2=O)cc1)NCc1ccco1,-4,100,99,-8
O=C(CCN=C1NS(=O)(=O)c2ccccc21)N1CCN(c2ccc(C(F)(F)F)cn2)CC1,9,98,108,6
C1=CN(c2ccccc2)C(C=NCc2ccccc2)=CS1,-15,103,103,.
Fc1ccc(Nc2nc(-c3ccncc3)nc3ccccc23)cc1,.,103,106,-8
O=C1CC(CSc2nnnn2-c2ccccc2)=NN1c1nc2ccccc2[nH]1,-5,103,105,17
Oc1ccc(C2C=CCC2)cc1 (stereo not given),-9,98,102,2
O=S(=O)(c1cccc(C(F)(F)F)c1)N1CN2CN(C1)CN(S(=O)(=O)c1cccc(C(F)(F)F)c1)C2,-3,100,99,-1
CCCCN=c1sc(C(=O)OC)cc(=O)n1CCCC,-37,100,105,-2
CC1CC(=O)Nc2ccccc2N1C(=O)COC(=O)c1n[nH]c(=O)c2ccccc12 (stereo not given),-21,105,117,-7
Cc1cc(Cl)n2ncnc2n1,-3,97,102,4
O=C(Cn1ncn2c(cc3ccccc32)c1=O)NCc1ccc(Cl)cc1,6,101,106,-1
COc1ccc2c(c1)Sc1ccccc1N2,.,102,107,8
Cn1c(=O)c2ccccc2[s+]1-c1cccc2cccc(C(=O)O)c12 (stereo not given),-2,103,110,3
O=C(Nc1nnc(N2CCCCCC2)s1)c1cc(-c2ccc(Br)cc2)on1,-21,104,103,-3
O=C(Cc1cn2ccsc2n1)N/N=C1\CCc2ccccc21,-18,101,97,-1
C[C@H]1C[C@H]2[C@@H]3CCC4=CC(=O)C=C[C@]4(C)[C@@]3(F)[C@@H](O)C[C@]2(C)[C@@]1(O)C(=O)CO,9,100,99,-13

# Compound profiles, from the list above.
# Record of `N/C(Cn1ccccc1=O)=N\O` : Mtb MenB inh: -3; PV pol inh: 100; PV pol inh intensity: 105; Mtb MbtI inh: 35
# Record of `Fc1ccc(Nc2nc(-c3ccncc3)nc3ccccc23)cc1` : Mtb MenB inh: .; PV pol inh: 103; PV pol inh intensity: 106; Mtb MbtI inh: -8

# Other entries
SMILES,Mtb MenB inh,PV pol inh,PV pol inh intensity,Mtb MbtI inh
CCOc1ccccc1N(C)S(=O)(=O)c1ccc2c(c1)SC(C)C(=O)N2 (stereo not given),-23,104,105,-5
CN1CC=C(c2noc(CCC(=O)Nc3ccc(F)cc3F)n2)CC1,-10,105,96,10
O=C(NC1=NCCS1)C(c1ccccc1)c1ccccc1,.,102,108,-11
N#Cc1ccc(C=Nc2ccc(I)cc2)cc1,-12,103,99,.
O=C(NC(=O)N1CCSC1)c1c(F)cccc1Cl,-8,110,101,3
CCCn1c(N)c(C(=O)COC(=O)Cn2cc(C(F)(F)F)ccc2=O)c(=O)[nH]c1=O,-5,102,107,-10
O=C(CC1Nc2ccccc2NC1=O)Nc1ccc(F)cc1 (stereo not given),-8,102,102,18
Cc1nn(CCCC(=O)NC2CCCC2)c(=O)c2nccn12,-14,100,103,-5
CN1CCc2c(-c3cccs3)nc(OCc3ccccc3Br)c(C#N)c2C1,3,45,241,.
COc1ccccc1N1C(=S)SC2CS(=O)(=O)CC21 (stereo not given),5,109,109,-1
N#Cc1nc(COc2ccccc2)oc1NCc1cccnc1,-7,101,100,-2
Oc1cc(O)cc(/C=C/c2ccc(O)c(O)c2)c1,0,100&100,101&100,i
O=C(c1cc(-c2ccccc2)on1)N1CCCC1,5,101,100,.
COc1ccc(NS(=O)(=O)c2cc3c(cc2C)NC(=O)CO3)cc1,2,102,101,-8
CC(C)c1ccc(S(=O)(=O)N2CCN(C(=O)CN3C(=O)c4ccccc4C3=O)CC2)cc1,-29,104,103,-7
CC(C)(C)c1nc(S(=O)(=O)c2ccccc2)c(NCc2ccccc2)o1,-4,101,98,26
Cc1ccccc1NC(=O)NC(N)=O,3,98,102,2
CC(C#N)Sc1nc2ccc(Br)cc2c(=O)n1Cc1ccco1 (stereo not given),-31,102,108,-6
CC(=O)n1c2c(c3ccccc31)OC(N)=C(C#N)C2c1ccc(Cl)cc1Cl (stereo not given),8,99,105,11
CCOC(=O)Cn1c(=O)oc2cc(S(=O)(=O)N3CCCC3)ccc21,-8,102,108,0
O=C(O)c1ccccc1CN1CCOCC1,25,101,100,4
CN(Cc1ccccc1)C(=O)C1CCN(S(C)(=O)=O)CC1,-15,102,102,-5
Cc1ccc(SCC(=O)N/N=C/c2ccco2)cc1,-15,102,102,12
CCCCCn1c(=O)c2ccccc2n2c(Cn3nnc(-c4ccccc4)n3)nnc12,-42,102,104,5
Cc1c2cnn(C)c(=O)c2c(C)n1-c1ccccc1,-10,100,105,9

# Next records.
SMILES,Mtb MenB inh,PV pol inh,PV pol inh intensity,Mtb MbtI inh
Cc1ccc(-c2nnc3n2N=C(C(C)(C)C)CS3)cc1,-24,105,107,-22
CCN(CC)C(=O)C(c1ccccc1)c1ccccc1,-11,105,107,.
CCOC(=O)c1sc(NC(=O)C2CC2)cc1C,-16,104,105,-32
Nc1sc2c(c1C(=O)O)CCCC2,-11,102,122,21
COc1ccc(CCNC(=O)CCc2nnc3n(CCC(C)C)c(=O)c4ccccc4n23)cc1OC,-16,102,104,-2
Nc1c(-c2ccccc2)no[n+]1[O-],.,99,105,-1
Cc1ccc(S(=O)(=O)NCCC(=O)NC2=NCCS2)cc1C,-31,113,108,-1
N#CC1=C(N)C(C#N)(C#N)C(c2ccccc2)C2=C1CCCC2 (stereo not given),-14,104,113,.
NNC(=O)CNC(=O)c1ccc(S(=O)(=O)N2CCOCC2)cc1,3,100,104,6
Cc1nc(C)c(C(=O)OC(C)C(=O)Nc2ccc(C(N)=O)cc2)s1 (stereo not given),-15,106,106,-5
CCOC1(c2ccccc2)OC(=O)c2ccccc21 (stereo not given),-17,106,102,-7
COC(=O)c1ccsc1NC(=O)CN1CCN(S(=O)(=O)c2ccc(Cl)cc2)CC1,-12,103,102,11
CCCc1cc(-c2onc(C)c2-c2ccc(C(=O)OCC)o2)c(O)cc1OC,-37,104,104,178
CCC(C)(C)NC(=O)Cn1[nH]c(=O)c2ccccc2c1=O,3,97,103,8
c1ccn2cc(CN3CCCCC3)nc2c1,-1,94,96,.
CC(C)N1C(=O)C(=Nc2ccc(C#N)cc2)c2ccccc21,.,102,100,-4
CCC(C(=O)O)n1c2ccccc2c2cn[nH]c(=O)c21 (stereo not given),3,103,105,66
NCCC(=O)N1c2ccccc2Sc2ccc(Cl)cc21,-38,102,100,-16
Cc1cc(C)nc(NC#N)n1,.,104,105,-34
COc1ccccc1-c1nn(CCC(=O)NCCCN2CCCC2=O)c2nc(C)cc(C)c12,-35,104,103,87
O=C(COc1ccccc1F)NCc1nc2ccccc2[nH]1,.,102,97,-17
Cc1cc(Cl)ccc1OCc1nc(=S)[nH][nH]1,-23,102,107,-10
COc1ccc(C=C2C(=O)OC3(CCCCC3)OC2=O)cc1OC,4,102,105,1
CC1=NN(c2nc3ccccc3nc2Cl)C(=O)C1,-7,100,103,-13
COc1cc(NC(=O)CNc2cccc(C#N)c2)cc(OC)c1,-22,107,104,56

# (more compounds)
SMILES,Mtb MenB inh,PV pol inh,PV pol inh intensity,Mtb MbtI inh
COC(=O)c1cc(-c2ccc(F)cc2)nc2onc(C)c12,3,105,110,62
Cc1c(NC(=O)Cn2c(-c3cscn3)nc3ccccc32)c(=O)n(-c2ccccc2)n1C,3,101,102,18
Cc1ccc(C(=O)NC(C(=O)O)c2ccccc2)cc1 (stereo not given),-22,105,102,6
CCOC(=O)CN1C(=O)S/C(=C/c2ccc(OCC(N)=O)c(OCC)c2)C1=O,-19,99,104,-10
Cc1nc2nc(SCC(=O)O)nn2c(C)c1Cc1ccccc1Cl,-13,100,103,-2
CC(C)CCn1c(O)c(N=O)c2ccccc21,.,102,107,0

# Assay outcomes from PubChem BioAssay.
